From PubChem BioAssay
ClpP mod = qHTS Assay for Activators of ClpP. ATP-dependent Clp protease proteolytic subunit (Bacillus subtilis (strain 168)), P80244. Potency, µM (series often up to 57.5 µM), inactives show top-dose activity change, negative = active. 340,000 tested, 1.9% active. purified B. subtilis ClpP, FRET peptide cleavage, 20 min; active = well fitted falling curve with a large enough effect; inconclusive = small, poorly fitted or top-dose-only effect; inactive = no such curve, though single readings can be large or run the other way; further: the source files actives as falling curves though it sought activators and does not explain the sign; nearly all actives have a fitted effect of over 65% in size; many hits overshoot -100%
Target sequence (P80244 whole entry, looked up): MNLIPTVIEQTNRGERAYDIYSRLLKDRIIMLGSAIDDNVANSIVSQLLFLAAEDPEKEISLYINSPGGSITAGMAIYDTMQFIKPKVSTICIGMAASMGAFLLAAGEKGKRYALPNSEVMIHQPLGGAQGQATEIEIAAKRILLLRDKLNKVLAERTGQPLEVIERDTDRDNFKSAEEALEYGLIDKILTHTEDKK
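Purified B. subtilis ClpP, 10 microg/mL final in Tris/HCl pH8 with KCl, BSA, glycerol and Tween-20, cleaved an Abz/nitrotyrosine-quenched decapeptide. Fluorescence (ex 320, em 430) was read at 0 and 20 min at room temperature. Delta was normalized to 5.8 microM ADEP and DMSO/no-enzyme controls.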
The depositor's hits bear a star; ? = inconclusive. Potency means the concentration at half of the fitted maximal effect. This is a subset, so the mix of outcomes need not match the whole.

SMILES	ClpP mod
Cc1ccccc1N=C1Nc2ccc(Cl)cc2N[C@]12C[C@H]1CCCC(=O)N3CC[C@@H](C2)[C@@H]13	-0.8%
CCOC(=O)c1c(C)[nH]c(C)c1S(=O)(=O)NCC(=O)Nc1ccc(C)c(N(C)C)c1	0.1%
COc1cc(OC)c(NC(=O)c2sc3nc4n(c(=O)c3c2C)CCCC4)cc1Cl	-1.8%
COC(=O)C[C@H]1C=C[C@H](NC(=O)C2CCOCC2)[C@@H](CO)O1	0.2%
O=C(CSc1nccn1C1CCCC1)Nc1ccccc1	-0.4%
CCOC(=O)c1sc2ccccc2c1S(=O)(=O)NCc1ccc(F)cc1	-6.1%
Cc1cc(NC(=O)N2CCC(CN3CCOCC3)CC2)ccc1Br	-2.1%
CCc1ccc(NC(=O)CSC2=Nc3ccccc3C3=NC(CCC(=O)NCc4ccco4)C(=O)N23)cc1 (centres undefined)	-3.2%
CCc1ccc(CNCc2c(C(=O)O)c(C)n(Cc3c(F)cccc3Cl)c2C)cc1	-0.6%
Cc1ccc2oc(-c3ccc(C)c(NC(=O)/C=C/c4ccco4)c3)nc2c1	-8.9%
O=C(NCCc1ccccc1Cl)c1cc2ccccn2n1	?
CSc1ccc(C(=O)Nc2ccc(-c3nc4ccccc4s3)c(O)c2)cc1	-2.0%
O=C(Nc1cnc(N2CCC(N3CCCCC3)CC2)c(C(=O)O)c1)c1ccc(Br)cc1	-0.5%
CC1CCN(C(=O)Cn2cc(SCc3ccccc3)c3ccccc32)CC1	2.6%
O=Cc1cc2ccccc2cc1O	2.1%
CC(C)Cn1c(=O)c2ccccc2n2c(CCC(=O)Nc3cccc(Cl)c3)nnc12	-0.4%
CC1CCN(C(=O)Cn2cc(SCC(=O)Nc3ccccc3)c3ccccc32)CC1	1.2%
O=C(Nc1ccc2nc(SCC(=O)N3CCc4ccccc43)sc2c1)c1ccc(Cl)cc1	24.5%
COc1ccccc1NC(=O)C1=C(C)Nc2c(C(=O)Nc3ccc(C)cc3)cnn2C1c1cccc(OC)c1OC (centres undefined)	-8.4%
COc1ccccc1CNC(=O)Cn1ncc2c(=O)oc3ccc(C)cc3c21	-0.6%
Cc1csc2nc(-c3cccc(NC(=O)C(C)C)c3)cn12	-0.4%
O=S(=O)(c1cccc(Cl)c1)N1CCN(c2nc(-c3ccccc3)nc3ccccc23)CC1	-0.5%
CCOC(=O)[C@]12CCC=C1N(Cc1ccccc1)C(=O)[C@H](CC(=O)NCc1ccc(C)o1)C2	-6.9%
COc1cccc(N2CCN(C(=O)C3CCCN(S(=O)(=O)c4cccc5nsnc45)C3)CC2)c1 (centres undefined)	-0.9%
CCCCc1c(-c2ccccc2OC)ncn1Cc1ccc(-c2ccccc2)cc1	-18.5%
Remaining list, next part
SMILES	ClpP mod
Cc1c(Cl)cccc1-n1ncc(C(=O)N2CCc3ccccc3C2)c1C1CCN(C(=O)OC(C)(C)C)CC1	-0.3%
CCCOc1ccc(C(=O)Nc2sc3c(c2C(=O)OCC)CCCCC3)cc1	-8.8%
CCOC(=O)C1=NOC2(C1)C(=O)Nc1c(Cl)cccc12 (centres undefined)	0.7%
CCOC(=O)c1cccc(NC(=O)CC2C(=O)N(c3ccc(C)cc3)C(=O)N2Cc2cccc(OC)c2)c1 (centres undefined)	-2.9%
COc1ccccc1C(=O)Nc1ccc(-c2cc(C(F)(F)F)nn2-c2ccccc2)cc1	22.4µM*
COc1cc(OC)c(-c2nn3c(-c4n[nH]c5c4CCC5)nnc3s2)cc1OC	?
COc1ccccc1C(=O)Nc1cccc(OCc2cc(=O)n3c4c(sc3n2)CCCC4)c1	-17.2%
COc1cc(CN(C(=O)COc2ccc(F)cc2)c2ccccn2)cc(OC)c1OC	0.3%
N#Cc1c(C(F)(F)F)cc(-c2cccs2)nc1SCC(=O)Nc1cccc(Br)c1	4.6%
Cc1cccc(C(=O)NNc2ncnc3c2cnn3-c2ccc(C)c(Cl)c2)c1	0.0%
Cc1cc(-c2ccccc2)nc2cc(C(=O)Nc3ccc(Cl)c(Cl)c3)nn12	-29.4%
CCc1ccc(NC(=O)Cn2ncc3c(C)n(Cc4cccc(Cl)c4)c(C)c3c2=O)cc1	-2.5%
COC(=O)c1cnn2c(C)c(Cc3c(C)cc(C)cc3C)c(C)nc12	-18.4%
COc1ccc(-n2c(-c3ccco3)nc3c(cnn3-c3ccc(Cl)cc3)c2=O)cc1	-13.8%
Cc1ccc(S(=O)(=O)N2CC3C(=O)CC(c4ccccc4)N(S(=O)(=O)c4ccc(C)cc4)C3CC2c2cccc(Cl)c2)cc1 (centres undefined)	0.0%
Cc1oc2ncn(CC(C)C)c(=O)c2c1C(=O)N1CCN(c2cccc(C(F)(F)F)c2)CC1	-0.4%
O=S(=O)(c1ccc(Br)cc1)c1nnn2c1nc(N1CCOCC1)c1sccc12	-2.1%
O=C(/C=C/c1cn(CC(O)CN2CCCCCC2)c2ccccc12)c1ccc(Br)cc1 (centres undefined)	-1.1%
Cc1cc(C)cc(N2C(=O)N(Cc3cc(=O)n4ccccc4n3)c3ccccc3S2(=O)=O)c1	?
CCOc1ccc(-n2nc(CO)c(C(=O)NCc3cccs3)n2)cc1	7.94µM*
COc1ccccc1NCc1cccn1-c1nnc(N2CCOCC2)s1	-2.6%
O=C(NC1CCCCCC1)c1ccc(CS(=O)c2cccc(Cl)c2)o1 (centres undefined)	-0.4%
Cc1ccc(C2c3[nH]c4ccccc4c3CCN2C(=O)c2ccccc2Br)cc1 (centres undefined)	0.5%
CCOC(=O)[C@]12CCC=C1N(Cc1ccc3c(c1)OCO3)C(=O)[C@H](CC(=O)N1CCOCC1)C2	-1.1%
COc1cc(NC(=O)c2cnc3c(-c4ccc(F)cc4)c(C)nn3c2C)cc(OC)c1	-4.2%
The listing continues.
SMILES	ClpP mod
COc1ccc(C2=C(C)C(=NCc3ccc(OC(C)C)cc3)NS2(=O)=O)cc1	-17.3%
Cc1c(C(=O)Nc2ccc(F)c(Cl)c2)sc2nc3n(c(=O)c12)CCC3	-0.8%
CCOc1ccc(C2c3c(oc4ccc(C)cc4c3=O)C(=O)N2CCCN(C)C)cc1OC (centres undefined)	-9.4%
COc1ccc(-c2cc(-c3ccccc3)c(C#N)c(SCC(O)CS(=O)(=O)Cc3ccc(Cl)cc3)n2)cc1 (centres undefined)	4.2%
COc1ccc(Cl)cc1Nc1cc(C)nc2nc(-c3ccccc3C)nn12	?
O=C(CS(=O)(=O)c1cccc2nsnc12)N1CCN(c2ccccc2)CC1	-3.5%
COc1ccccc1CNC(=O)c1sc2nc3n(c(=O)c2c1C)CCC3	-5.1%
O=C(CN1C(=O)c2ccccc2Sc2ncccc21)Nc1cccc(C(F)(F)F)c1	9.4%
CC(C)(C)C(=O)Cn1c(=O)n(-c2ccccc2)c(=O)c2c3c(sc21)CCC3	-3.0%
Cc1ccc(CNC(=O)c2ccc(CS(=O)(=O)Cc3ccc(C)cc3)o2)cc1	-0.8%
COc1ccc(-c2cc(C(C)=O)c(C)n2CCC(=O)Nc2ccc(C)cc2Cl)cc1	-1.1%
CCc1ccc(-c2cn3c(n2)sc2cc(C(=O)NC4CCCCCC4)ccc23)cc1	-8.6%
CCC(Sc1nc2cc3c(cc2c(=O)n1CCCCCC(=O)NCc1ccc2c(c1)OCO2)OCO3)C(=O)NCCCOC (centres undefined)	2.1%
Cc1cccc(N(CC(=O)NCc2ccccc2)S(C)(=O)=O)c1C	-1.1%
COc1ccc(/C=C/c2nc3ccccc3c(=O)n2-c2cccc(C(F)(F)F)c2)cc1	2.8%
N[C@@H](Cc1ccc(O)cc1)C(=O)NO	1.8%
CCCCNC(=O)Cn1c(SCc2cccc(Cl)c2)nc2ccncc21	-5.3%
COc1ccccc1NC(=O)CSC1=Nc2ccccc2C2=NC(CC(=O)NCc3ccccc3)C(=O)N12 (centres undefined)	-2.6%
CCCCN(C)CCNC(=O)Cn1ncc2c([nH]c3ccccc32)c1=O	5.4%
CCC12CN3CC(CC)(CN(C1)C3c1ccc(OCc3ccccc3)cc1)C2=O (centres undefined)	0.1%
CCC1(C)CC(=O)c2c(ccc3oc(C(=O)NCc4ccccc4)c(C)c23)O1 (centres undefined)	?
CCOC(=O)c1cnc2ccc(OCC)cc2c1Nc1ccc(OCc2ccccc2Cl)cc1	-1.0%
CCN1CCN(C(c2ccccc2Cl)c2c(O)cc(C)n(Cc3ccco3)c2=O)CC1 (centres undefined)	-3.9%
Cc1c(CCC(=O)NCCc2ccc(Cl)cc2)c(=O)oc2c(C)c(O)ccc12	4.1%
COc1ccccc1-c1cccc(-c2nc(C(=O)Nc3nccs3)cc3c2[C@@H](CCO)N(C(C)=O)C3)c1	-6.3%
Going on with the list:
SMILES	ClpP mod
Cc1nn(-c2ccccc2)c(OC(=O)c2cccc(Br)c2)c1S(=O)(=O)c1ccccc1	0.0%
CCN(CC)c1ccc(CNCCCSc2nnnn2C)cc1	-3.7%
COc1ccc(CCN2C(=O)CN(C3CCCCCC3)C(=O)C2c2ccc(Cl)cc2)cc1OC (centres undefined)	-0.7%
Cc1ccccc1CCNC(=O)c1cc2ccccn2n1	?
O=S(=O)(Nc1ccccc1C(F)(F)F)c1ccc(N2CCCCS2(=O)=O)cc1	-0.8%
COc1ccc(-c2onc(C)c2C)cc1S(=O)(=O)N(C)Cc1ccccc1	-6.1%
Cc1c(Cl)cccc1NC(=O)C(C)n1c(=O)cc(-c2ccccc2)c2c(C)nn(C)c21 (centres undefined)	77.4%
COc1ccc(NC(=O)c2cc(S(=O)(=O)N3CCOCC3)ccc2OC)cc1	2.0%
CCOc1ccc(CCNC(=O)c2c3c(nc4ccccc24)C(=O)N(C2CCCCC2)C3)cc1	-7.4%
CN1CCN(C(c2ccccc2)c2sc3nc(-c4ccco4)nn3c2O)CC1 (centres undefined)	1.1%
Cc1ccc(CCNC(=O)c2ccc(CS(=O)(=O)Cc3cccc(C)c3)o2)cc1	0.5%
NS(=O)(=O)c1ccc(NC(=O)c2cnn3c2NC(=C2CC2)C=C3C(F)F)cc1	-1.0%
COc1cc(C(=O)NCC(c2cccs2)S(=O)(=O)c2cccs2)cc(OC)c1OC (centres undefined)	-3.2%
CCCCN(CC)CCCNC(=O)Nc1sc2nc3n(c(=O)c2c1C)CCC(C)CC3 (centres undefined)	-6.8%
COc1cc(CN2c3ccc(Br)cc3C(=O)CS2(=O)=O)cc(OC)c1	1.1%
O=C(CCNS(=O)(=O)c1ccc2c(c1)CCN2C(=O)C1CC1)N1CCN(c2cccc(C(F)(F)F)c2)CC1	0.9%
COc1cc(C2CC(=O)c3c([nH]c(C(=O)OCC4CCCCC4)c3C)C2)cc(OC)c1OC (centres undefined)	-2.4%
COC(=O)c1ccc(NC(=O)CC2C(=O)N(c3ccccc3)C(=O)N2Cc2ccc(F)cc2)cc1 (centres undefined)	-1.9%
CSc1ccc(CCNC(=O)CCc2c(C)nc3c4cccnc4nn3c2C)cc1	3.8%
O=C(Nc1ccc(Cl)cc1Cl)c1cnn2c1NC(=C1CC1)C=C2C(F)F	-0.6%
CC1=C(C(=O)OCC2CCCCC2)C(c2ccc(F)cc2F)CC(=O)N1 (centres undefined)	-2.8%
COc1ccc(-c2cc(C(=O)NCc3ccc(F)cc3)no2)cc1	-7.5%
Cc1cccc(Cn2c(SCc3ccc(C(=O)NCc4ccccc4F)cc3)nc3ccncc32)c1	-18.4%
CC(=O)/C=C1\OCc2cc(OCc3ccccc3)ccc21	-1.6%
COc1ccc(CNC(=O)Cn2c(=O)oc3cc(S(=O)(=O)N4CCC(C)CC4)ccc32)cc1	0.7%

A section of the results above:
SMILES	ClpP mod
NS(=O)(=O)c1ccc(NC(=O)c2cnn3c2NC(=C2CC2)C=C3C(F)F)cc1	-1.0%
COc1cc(C(=O)NCC(c2cccs2)S(=O)(=O)c2cccs2)cc(OC)c1OC (centres undefined)	-3.2%
CCCCN(CC)CCCNC(=O)Nc1sc2nc3n(c(=O)c2c1C)CCC(C)CC3 (centres undefined)	-6.8%
COc1cc(CN2c3ccc(Br)cc3C(=O)CS2(=O)=O)cc(OC)c1	1.1%
O=C(CCNS(=O)(=O)c1ccc2c(c1)CCN2C(=O)C1CC1)N1CCN(c2cccc(C(F)(F)F)c2)CC1	0.9%
COc1cc(C2CC(=O)c3c([nH]c(C(=O)OCC4CCCCC4)c3C)C2)cc(OC)c1OC (centres undefined)	-2.4%
COC(=O)c1ccc(NC(=O)CC2C(=O)N(c3ccccc3)C(=O)N2Cc2ccc(F)cc2)cc1 (centres undefined)	-1.9%
CSc1ccc(CCNC(=O)CCc2c(C)nc3c4cccnc4nn3c2C)cc1	3.8%
O=C(Nc1ccc(Cl)cc1Cl)c1cnn2c1NC(=C1CC1)C=C2C(F)F	-0.6%
CC1=C(C(=O)OCC2CCCCC2)C(c2ccc(F)cc2F)CC(=O)N1 (centres undefined)	-2.8%
COc1ccc(-c2cc(C(=O)NCc3ccc(F)cc3)no2)cc1	-7.5%
Cc1cccc(Cn2c(SCc3ccc(C(=O)NCc4ccccc4F)cc3)nc3ccncc32)c1	-18.4%
CC(=O)/C=C1\OCc2cc(OCc3ccccc3)ccc21	-1.6%
COc1ccc(CNC(=O)Cn2c(=O)oc3cc(S(=O)(=O)N4CCC(C)CC4)ccc32)cc1	0.7%

Continuation:
SMILES	ClpP mod
COc1cc2c(cc1OC)n(Cc1ccc([N+](=O)[O-])cc1)c(=O)n1nc(-c3ccccc3)nc21	-1.8%
C[C@@H](c1ccccc1)N1C[C@@H](COCc2ccccc2)Oc2cc(N3CC[C@H](N(C)C)C3)ccc2S1(=O)=O	-3.6%
O=C(NCc1ccccc1Cl)c1cnc2sc(N3CCCCC3)nn2c1=O	4.7%
COc1cc(C(=O)NCCc2sc(-c3cccc(F)c3)nc2C)cc(OC)c1OC	?
Cc1ccccc1C(=O)N1CCC(C(=O)Nc2ccc(F)cc2F)CC1	0.5%
COCC(C)NS(=O)(=O)c1ccc(N2CCCCS2(=O)=O)cc1 (centres undefined)	-2.2%
Cc1ccc(Cl)cc1Nc1nn2c(=O)c3ccc(C(=O)NC4CCCCC4)cc3nc2s1	-1.1%
